# Biofilm kill mix – mixtures killing C. albicans biofilm; 120,000 tested, 0.02% active; C. albicans biofilm persisters + clotrimazole, fluorescence viability; primary screen in compound mixtures of four per well; AID 1242; inhibition, % at 7.6 µM;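 active = inhibition above 30.3% in the primary screen of four-compound pools, then above 30% when the compound was retested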;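 also: compounds exposed to preformed 24 h biofilms for 48 h; the number belongs to the whole pool; some results filed as inactive read as strong as hits; inactives centre near 12; 0% = biofilm with clotrimazole alone and 100% = kill control; retested singly at about 60 µM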
#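 Test system: C. albicans biofilms. Buffer or medium: RPMI/MOPS medium, pH 7.0. Timing: 48 h compound exposure at 37 °C. Technique: Alamar Blue fluorescence. Evaluation: percent inhibition of biofilm viability.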
# Numbers without * were called inactive.
# Preview:
No. | Structure | Biofilm kill mix
1 | COc1ccc(-c2cc(C(=O)OCC(=O)c3cccc([N+](=O)[O-])c3)c3cc(C)ccc3n2)cc1 | 9
2 | COc1ccc(OC)c(/C=N/NC(=O)CSc2cc(C)nc3c(OC)cccc23)c1 | 23
3 | COc1ccc(C(=O)c2ccc(N(C)C)cc2)c2ccccc12 | 10
4 | CC(O)CNCCCOc1cccc(C(F)(F)F)c1 (centres undefined) | 15
5 | Cc1nn(C)cc1/C=N/NC(=O)Cn1nccc1C | -3
6 | Cc1ccc(NC(=S)c2nc3ccccc3[nH]2)c(C)c1 | 16
7 | CC(C)CNC(=O)COC(=O)c1c2c(nc3ccccc13)/C(=C/c1cccs1)CC2 | -10
8 | COc1ccc(/C=N/NC(=O)c2cccnc2)cc1CSc1nc2ccccc2s1 | 10
9 | CCn1c(CNc2ccc(Cl)cc2)nnc1SCC#N | 17
10 | Cn1c(=O)c2[nH]c(SCc3ccccn3)nc2n(C)c1=S | 9
11 | C/C(=N/NC(N)=S)c1cc2ccc(O)cc2oc1=O | 12
12 | O=C1CCCN2N=C(SCC(=O)N3N=C(c4ccc(Br)cc4)CC3c3ccc(F)cc3)SC2=N1 (centres undefined) | 17
13 | COc1ccc(C(=O)Cc2ccccc2)cc1OC | 18
14 | O=c1cnnc(N/N=C/c2cccs2)[nH]1 | 1
15 | O=C(CNc1ccccc1)N/N=C/c1ccc([N+](=O)[O-])cc1 | 22

# All compounds of this part (from the top)
No. | Structure | Biofilm kill mix
1 | COc1ccc(-c2cc(C(=O)OCC(=O)c3cccc([N+](=O)[O-])c3)c3cc(C)ccc3n2)cc1 | 9
2 | COc1ccc(OC)c(/C=N/NC(=O)CSc2cc(C)nc3c(OC)cccc23)c1 | 23
3 | COc1ccc(C(=O)c2ccc(N(C)C)cc2)c2ccccc12 | 10
4 | CC(O)CNCCCOc1cccc(C(F)(F)F)c1 (centres undefined) | 15
5 | Cc1nn(C)cc1/C=N/NC(=O)Cn1nccc1C | -3
6 | Cc1ccc(NC(=S)c2nc3ccccc3[nH]2)c(C)c1 | 16
7 | CC(C)CNC(=O)COC(=O)c1c2c(nc3ccccc13)/C(=C/c1cccs1)CC2 | -10
8 | COc1ccc(/C=N/NC(=O)c2cccnc2)cc1CSc1nc2ccccc2s1 | 10
9 | CCn1c(CNc2ccc(Cl)cc2)nnc1SCC#N | 17
10 | Cn1c(=O)c2[nH]c(SCc3ccccn3)nc2n(C)c1=S | 9
11 | C/C(=N/NC(N)=S)c1cc2ccc(O)cc2oc1=O | 12
12 | O=C1CCCN2N=C(SCC(=O)N3N=C(c4ccc(Br)cc4)CC3c3ccc(F)cc3)SC2=N1 (centres undefined) | 17
13 | COc1ccc(C(=O)Cc2ccccc2)cc1OC | 18
14 | O=c1cnnc(N/N=C/c2cccs2)[nH]1 | 1
15 | O=C(CNc1ccccc1)N/N=C/c1ccc([N+](=O)[O-])cc1 | 22
16 | COc1ccc(Br)cc1CN1CCCCCCC1 | 20
17 | Cc1ccc2nc(C)cc(N/N=C/c3cccnc3)c2c1 | 2
18 | CCCCC[C@H](O)/C=C/[C@@H]1[C@@H](C/C=C\CCCC(=O)O)[C@@H](O)C[C@H]1O | 5
19 | COc1cc(OC)c(C(=O)OCC(=O)c2cc(C)n(CC3CCCO3)c2C)cc1OC (centres undefined) | 8
20 | Cc1ccccc1CC(=O)N1CCCC(CCC(=O)N2CCN(c3ccccn3)CC2)C1 (centres undefined) | 22
21 | CC(C)(C)C1CCc2sc(-c3nnc(CCl)o3)cc2C1 (centres undefined) | 14
22 | Cc1ccc(C(=O)N2CCC3(CC2)Oc2ccc(F)cc2C(=O)C32CC(c3ccccc3)=NO2)s1 (centres undefined) | 12
23 | CC(C)CCNC(=O)C(CC(C)C)N(Cc1ccc2c(c1)OCO2)C(=O)c1snc(C(N)=O)c1N (centres undefined) | 10
24 | O=C(CC1SC(=Nc2ccccc2)N(CCc2c[nH]c3ccccc23)C1=O)Nc1ccccc1F (centres undefined) | -5
25 | C/C(=C/CCC(C)[C@H]1CC[C@@]2(C)C3=C(CC[C@]12C)[C@@]1(C)CCC(=O)C(C)(C)[C@@H]1CC3)C(=O)O (some centres undefined) | 8
26 | COc1ccc(-c2cc3nc(-c4ccccc4)cc(N4CCCC(O)C4)n3n2)cc1 (centres undefined) | 25
27 | COc1ccc(Br)c(C(=O)Nc2ccc(F)cc2)c1 | 0
28 | CN(CCO)CC(O)CN(c1ccccc1)c1ccccc1 (centres undefined) | 8
29 | CCCn1c(=O)n(C)c(=O)c2c(SCC(=O)NC34CC5CC(CC(C5)C3)C4)nc(CC(C)C)nc21 | 8
30 | COc1ccc(C(CCN2CCCC2)c2c(O)cc(OC)cc2OC)cc1 (centres undefined) | 12
31 | CCOC(=O)CNC(=S)N(Cc1ccc(C)cc1)Cc1ccc(C)o1 | 10
32 | CCCc1ccc(C(=O)NNc2cc(Cl)ccc2Cl)cc1 | 17
33 | CC(C)(c1ccccc1)c1ccc(OCCCN2CCNCC2)cc1 | 10
34 | Cc1cccc(OCc2nnc(SC(C)C(=O)O)n2Cc2ccccc2)c1 (centres undefined) | 19
35 | FC(F)(F)c1ccc(C2[C@H]3CN(Cc4cccnc4)[C@H](c4ccccc4)C34CC2(c2ccccc2)C4)cc1 (some centres undefined) | 3
36 | O=C(CCNS(=O)(=O)c1ccc(Br)cc1)NC1CCCCC1 | 11
37 | O=C(NCCN1CCOCC1)c1c[nH]c2ccc(S(=O)(=O)N3CCOCC3)cc2c1=O | 16
38 | CCc1cc2c(=O)c(-c3nc4ccccc4n3C)c(C)oc2c(CN2CCCCC2)c1O | 35
39 | CC(=O)N[C@@H](CS)C(=O)O | 6
40 | Cc1ccc2nc(-c3cccnc3)cc(C(=O)N3CCN(c4ccc([N+](=O)[O-])cc4)CC3)c2c1 | 10
41 | CNC(=O)COC(=O)c1ccc([N+](=O)[O-])cc1Cl | 18
42 | CN(c1c(C#N)c(C(F)(F)F)nn1C)N(S(C)(=O)=O)S(C)(=O)=O | 6
43 | C#CCNC(=O)C1=C[C@H](c2ccc(C(F)(F)F)cc2)[C@@H](CCCO)[C@H](OCC)O1 | 19
44 | COc1ccc(C(=O)NCC(=O)OCn2nnc3ccccc3c2=O)cc1OC | 2
45 | CN(N)c1nc2ccccc2nc1C(F)(F)F | 7
46 | COC(=O)CSC1=C(C#N)C(=O)NC2(CCCCC2)S1 | 3
47 | CCOc1ccc(NC(=O)c2csc3c2CCCC3)cc1 | 11
48 | C(=C\c1ccccc1)/CN1CCN(C(c2ccccc2)c2ccccc2)CC1 | 3
49 | CCCC(c1nnnn1C(C)(C)C)N1CCN(Cc2ccccc2OC)CC1 (centres undefined) | 19
50 | S=c1nc[nH]c2c1sc1nc(-c3ccccc3)c3c(c12)CCCC3 | 4
51 | COc1ccc2[nH]c(=O)c(CN(C(=O)c3cccnc3)c3cccc(C)c3)cc2c1 | 17
52 | O=C(Nc1cccc2ccccc12)c1ccccc1 | 20
53 | CCOC(=O)CN1C(=O)CN(c2ccc(C)c(C)c2)C1=O | 25
54 | CC(C)Cn1c(N)c(C(=O)COC(=O)c2cc(F)cc(F)c2)c(=O)n(C)c1=O | 15
55 | Cc1ccc(N2C(=O)C(F)(F)C2c2ccccc2)cc1 (centres undefined) | 5
56 | COc1c(O)cnn(-c2ccccc2)c1=O | 5
57 | O=C(O)C1CCC(=O)N(C2CCCCC2)C1c1ccccc1Cl (centres undefined) | 24
58 | COc1ccc(CC2(CO)CCN(Cc3cccc(OC)c3OC)CC2)cc1 | -1
59 | CN(C)S(=O)(=O)c1cccc(NC(=O)CSc2nnnn2-c2ccccc2)c1 | -7
60 | COc1cc(/C=N/NC(=O)CCn2cnc(-c3ccccc3)c2-c2ccccc2)ccc1O | 3

# The results go on:
No. | Structure | Biofilm kill mix
61 | CN1CCN(C(=S)NC(=O)c2ccc(-c3ccccc3)cc2)CC1 | 16
62 | COc1ccc(-n2c(=S)[nH]c3[nH]ncc3c2=O)cc1 | -6
63 | O=C(CCCn1c(=S)[nH]c2ccsc2c1=O)Nc1ccc2c(c1)OCCO2 | 7
64 | C=CCn1cc(C(C)=O)c(=O)[nH]c1=O | 9
65 | O=C(COC(=O)c1ccc(Br)cc1)NCc1ccc(F)cc1 | 11
66 | CCOC(=O)c1c(C)[nH]c(C)c1C(=O)COC(=O)/C=C/c1cccc(C(F)(F)F)c1 | 8
67 | CCOC(=O)NN1C(=O)c2ccccc2NC1(C)C | 12
68 | CSC1=NCCN1S(=O)(=O)c1ccc(C)cc1 | 3
69 | Cc1nn(C)c2c(=O)c(=O)c2n(C)[nH]1 | 17
70 | O=C1NC(c2cccc([N+](=O)[O-])c2)=CCN1c1ccccc1O | 25
71 | CCOC(=O)C1=C(C)NC(SC)=NC1c1ccc(OC)cc1 (centres undefined) | 4
72 | CCOC(=O)C(O)C1CCc2c([nH]c3ccc(C)cc23)C1=O (centres undefined) | 10
73 | Cc1occc1C(=O)Nc1cccc(C(F)(F)F)c1 | 17
74 | O=C(N/C(=C/c1ccccc1Cl)C(=O)N1CCCC1)c1ccccc1 | 1
75 | Cc1cccnc1NC(=S)NC(=O)/C=C/c1ccccc1 | 8
76 | O=C1NC[C@H](c2ccccc2)N(CCc2cccc(F)c2)C1=O | 13
77 | Cc1ccc(NC(=O)CCNS(=O)(=O)c2cccc3nsnc23)cc1 | -4
78 | COc1ccc(-c2nc(N/N=C(\C)c3ccc(O)cc3)c3ccccc3n2)cc1 | 11
79 | O=C(CCC(=O)N1CCN(S(=O)(=O)c2ccc(Cl)cc2)CC1)Nc1ccc(Cl)cc1Cl | 16
80 | Cn1cc(CNC(=O)/C=C/c2ccc(Cl)cc2)cn1 | -2
81 | Cn1c(O)c(N=NC(=S)Nc2ccccc2F)c2cc(S(=O)(=O)N3CCOCC3)ccc21 | 34
82 | Cc1ccc(Nc2cc(C)nc3nc(C)nn23)cc1 | 9
83 | CC(C)CNC(=O)CC(=O)NN=C1CCCC1 | 17
84 | CC1CC(=O)Nc2cc([N+](=O)[O-])ccc2N1 (centres undefined) | 29
85 | Cc1cc(C)c2cc(C(=O)Nc3ccc4c(c3)OCO4)[nH]c2c1 | 3
86 | CCCN(C(=O)CSc1nnnn1C)c1c(N)n(Cc2ccccc2)c(=O)[nH]c1=O | 12
87 | CC1(C)C/C(=N\O)C(C(O)c2cccc([N+](=O)[O-])c2)C(C)(C)N1 (centres undefined) | 19
88 | Cc1cc(C(=O)NC(Cc2ccccc2)C(=O)O)c(C)o1 (centres undefined) | 16
89 | COc1ccc2c(c1)sc(N)[n+]2Cc1cc(C)cc2cccnc12 | 6
90 | CC1CCCN(CCOCCOc2ccccc2-c2ccccc2)C1 (centres undefined) | 15
91 | CCCCC(=O)NC(=S)Nc1ccc(NC(=O)C(C)C)c(OC)c1 | 18
92 | Cc1ccccc1S(=O)(=O)Cc1ccc(C(=O)NCc2ccc(F)cc2)o1 | 13
93 | C1CCc2c(nc3nnnn3c2NCC2CC2)C1 | 12
94 | Cc1nc(C)c(/C(O)=C\c2nc3ccc([N+](=O)[O-])cc3oc2=O)o1 | 13
95 | O=C(COc1ccccc1)N1CCN=C1SCc1ccccc1F | 19
96 | CCOc1ccc(N2C(=O)CC(Sc3n[nH]c(-c4ccccc4)n3)C2=O)cc1 (centres undefined) | 27
97 | CC1CCc2nc(NC(=O)Nc3ccc4c(c3)OCO4)sc2C1 (centres undefined) | 18
98 | Cc1ccc(C)c(CN2C(=O)COc3ccc(C(=O)c4ccccc4C(=O)O)cc32)c1 | 11
99 | CC1=NN(c2ccccc2)C(=O)/C1=C/c1c(O)n(-c2ccc(F)cc2)[nH]c1=O | 11
100 | COCc1cc(C)n(CC(=O)N/N=C/c2ccc(-c3ccc(Cl)c(C(=O)O)c3)o2)c(=O)c1C#N | 13
101 | CC1Oc2ccccc2OC1(O)c1ccc2ccccc2n1 (centres undefined) | 13
102 | CC(C)c1ccc(NC(=O)CN(Cc2ccccc2)S(C)(=O)=O)cc1 | 4
103 | O=C1C2C3c4ccccc4C(c4ccccc43)[C@@H]2C(=O)N1c1ccccn1 (some centres undefined) | 7
104 | CC1CCCC(C)N1C(=O)Cn1cnc2cc([N+](=O)[O-])ccc2c1=O (centres undefined) | 16
105 | O=C(CCC1CCCN(C(=O)C2=CCCC2)C1)N1CCN(c2ccccn2)CC1 (centres undefined) | 13
106 | CC(Nc1ccc2c(c1)OCCO2)C(=O)Nc1ccc2c(c1)OCO2 (centres undefined) | 5
107 | Cn1nnnc1SCC(=O)Nc1ccc(Cl)c(S(=O)(=O)N2CCOCC2)c1 | 17
108 | C[C@@H]1CC=C[C@H]2[C@H]1C(=O)N(Cc1ccccc1)[C@H]2c1ccc2ccccc2c1 | 24
109 | COc1cc(NC2=Nc3cccc4cccc2c34)cc(OC)c1OC | 18
110 | CCOCCCN1CC(C(=O)NCc2ccc3c(c2)OCO3)CC1=O (centres undefined) | 17
111 | C/C(=N\NC(=O)c1cc(C)oc1C)c1ccc2c(c1)OCO2 | 11
112 | CCC(C)Oc1cc(-c2ccnc(Nc3cccc(Cl)c3)n2)ccn1 (centres undefined) | 17
113 | Cc1nn(-c2ccccc2)c2c1C(c1ccc([N+](=O)[O-])cc1)N1C(=N2)C(=O)Nc2ccccc21 (centres undefined) | 18
114 | CCOc1ccccc1N(C(=O)Nc1cccc(Cl)c1)C1=NC(C)CS1 (centres undefined) | 29
115 | Cc1nc(-c2ccccc2)sc1C1(C)CC(c2ccc(C#N)cc2)=NO1 (centres undefined) | 15
116 | Cc1ccc(S(=O)(=O)N2CCN(CC(=O)N/N=C\c3ccccn3)CC2)cc1 | 8
117 | CC[C@H](C)C(C(=O)N1CCN(C(=O)OC(C)(C)C)CC1)n1cc(C(CC(C)C)NC(=O)OC(C)(C)C)nn1 (some centres undefined) | 12
118 | O=C(N/N=C/c1ccc(-c2ccc([N+](=O)[O-])cc2)o1)c1cccnc1 | 22
119 | O=C(CSc1ncn[nH]1)c1ccc(OC(F)F)cc1 | 24
120 | CC1=CCC2C(=O)N(c3cc(C)on3)C(=O)C2C1 (centres undefined) | 9
121 | Cc1ccc(F)cc1NC(=O)CCOc1ccccc1 | 9

# This is a subset (hit frequency here may not be typical).
